High-throughput results as filed in PubChem BioAssay.
Calb biofilm kill: clotrimazole potentiators killing C. albicans biofilm, primary screen, 4-compound mixtures | AID 1242, 2008 | inhibition, % at 7.6 µM | 120,000 tested, 0.02% active | C. albicans biofilm persisters + clotrimazole, fluorescence viability; primary screen in compound mixtures of four per well;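 active means inhibition above 30.3% in the primary screen of four-compound pools, then above 30% when the compound was retested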;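 further: compounds exposed to preformed 24 h biofilms for 48 h; the number belongs to the whole pool; some results filed as inactive read as strong as hits; inactives centre near 12; 0% = biofilm with clotrimazole alone and 100% = kill control; retested singly at about 60 µM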
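System: C. albicans CAF4-2 wild-type biofilms; Medium: RPMI/MOPS medium, pH 7.0; Reagent: Clotrimazole, 50 µg/mL; Times: biofilm formation 24 h, compound exposure 48 h, 37 °C; Detection: 2-h Alamar Blue fluorescence, 535/590 nm excitation/emission; Evaluation: percent inhibition of biofilm viability.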
* = called active by the depositor. These rows are one share of the data; the hit share may differ from the screen's.

Structure	Calb biofilm kill
COc1ccc(C2/C=C\CN(S(=O)(=O)c3cccs3)CC(=O)N2Cc2ccc(F)cc2)cc1 (stereo not drawn)	16
C=CCc1cc(OC)ccc1OCC(O)CN1CCN(c2ccc(OC)cc2)CC1 (stereo not drawn)	9
COc1ccc(C(CNC(=O)COc2ccccc2-c2ccccc2)N2CCOCC2)cc1 (stereo not drawn)	2
COc1ccc(/C=C2\CCn3c2nc2cc(C(=O)O)ccc2c3=O)cc1O	3
C=CCNc1nc(-c2cccs2)c(CC(=O)O)s1	7
Cc1ccc(N(C(=O)CCC(=O)Nc2nccs2)C(C(=O)NC(C)(C)C)c2ccc(O)cc2)cc1 (stereo not drawn)	9
COc1ccc2c(=O)c3c(=O)n(-c4ccc(C)cc4)c(-c4ccccc4)nc3oc2c1	19
CCOC(=O)Nc1nc(-c2ccc(F)cc2F)cs1	15
O=C(CCc1nc(-c2ccccn2)no1)NCc1ccc2c(c1)OCO2	26
Cc1ccc(C(=O)N2CCN(c3ccc([N+](=O)[O-])cc3-n3cccc3)CC2)cc1	21
CC12CC3(C)CC(C)(C1)CC(C(N)=O)(C2)C3	14
O=C(CSc1nnnn1C1CCCC1)Nc1ccccc1F	15
CC(C)OP(=O)(OC(C)C)C(Nc1ccccc1)c1ccccc1C(F)(F)F (stereo not drawn)	5
COc1ccc(OC)c(NC(=S)N(CCc2c(C)[nH]c3ccccc23)Cc2cccs2)c1	8
Cc1ccc(N(C)C(=O)n2cnc3ccccc32)cc1	12
O=C(CCc1nnc(CCCc2ccccc2)o1)NCCc1ccccc1	2
COc1ccc(C(=O)Nc2ccc3c(c2)nc(CN2CCCC2)n3C)cc1	25
COc1ccccc1NC(=O)Nc1ccc(N2CCOCC2)cc1	-9
Nc1cc(Nc2ccc(Br)cc2)nc(N)n1	10
CC(=O)Nc1cccc(OCC(O)Cn2c(C)nc3ccccc32)c1 (stereo not drawn)	16
Cc1noc(-c2ccccc2)c1NC(=O)Nc1ccc(Cl)cc1	15
O=C(CCn1cnc2ccccc21)N/N=C/C=C/c1ccccc1	23
S=c1[nH]nc(C2CCCCC2)n1/N=C/c1ccco1	-1
Cc1ccc2c(Cl)cc(Cl)c(OCC(=O)N3CCCC3)c2n1	13
COc1ccc(OC)c(CNC(=O)CCCc2cn(C)c3ccccc23)c1	10
COc1ccc(C(=O)/C=C/Nc2ccc(S(=O)(=O)Nc3onc(C)c3C)cc2)cc1	11
CC1CC(NC(=O)N(C)C)N(C)C(=O)N1 (stereo not drawn)	-9
CC(C)CN1C(=O)C(=Nc2cccnc2)c2ccccc21	15
Cc1ccc(NC(=O)CNC(c2ccccc2)c2ccccc2)c(F)c1	18
CCOc1ccc(C(=O)N(c2ccccn2)C2CCCCC2)cc1	28
O=C(O)c1cc(S(=O)(=O)N2CCN(c3ccccn3)CC2)ccc1Cl	12
Cc1nc(NC(=O)C(C)Oc2cccc(Cl)c2)sc1C(=O)N(C)C (stereo not drawn)	13
O=C(/C=C\Nc1ccc2c(c1)OCO2)c1ccc(Cl)s1	-11
COc1cc(OC)cc(-c2cn[nH]c2N)c1	13
C[n+]1cc[nH]c1SCC(=O)c1ccc(Cl)cc1	-24
Cc1nn(C)c(Oc2cccc(Cl)c2)c1C#N	16
CCS(=O)(=O)Nc1cccc(C2=NN(S(=O)(=O)c3ccc(F)cc3)C(c3cccs3)C2)c1 (stereo not drawn)	8
COc1ccc(C(=S)N2CCN(c3ccccc3Cl)CC2)cc1OC	14
O=Cc1cccn1-c1ccc2ccccc2c1	8
O=C(CC12CC3CC(CC(C3)C1)C2)NCC(=O)OCc1cc(=O)oc2ccc3ccccc3c12	22
Cc1nc2sc(C(c3ccco3)N3CCN(c4ccc(F)cc4)CC3)c(O)n2n1 (stereo not drawn)	-8
COCCCN(C(=S)NC(=O)c1ccc(Br)cc1)c1c(N)n(Cc2ccccc2)c(=O)[nH]c1=O	11
Cn1c(CCNC(=O)c2ccccc2)nc2ccccc21	13
O=C(O)/C=C/C(=O)NCCNc1ncc(C(F)(F)F)cc1Cl	18
CC1=C(c2ccc(F)cc2)[N+](=O)C(C)(C)N1[O-]	15
CC(C)n1c(CSCc2ccc(Cl)cc2Cl)n[nH]c1=S	12
COc1ccc(CC(=O)Nc2ncc([N+](=O)[O-])s2)cc1OC	30
Cc1nn(CC(=O)N(C)Cc2ccc(F)cc2)c(C)c1[N+](=O)[O-]	9
CC1CCN(C(=O)COc2cccc3c2CCN(C)C3=O)CC1	5
CN1CCc2nc3ccc(Cl)cc3c(-c3ccccc3Cl)c2C1	16
COc1ccc(C(=O)N2CCCC(CCC(=O)NCc3ccc(F)c(F)c3)C2)o1 (stereo not drawn)	19
COCCn1c(C(C)C)nc2ccccc21	18
O=C(Cc1c(F)cccc1Cl)Nc1ncc([N+](=O)[O-])s1	16
Cc1nc2cc(C(=O)N3c4ccccc4CC3C)ccc2s1 (stereo not drawn)	6
Cc1nc2ccccc2c2c1C(=O)N(c1ccc(C(=O)O)cc1)C2=O	10
COc1cc(NC(=O)CN(C)C2CCCCC2)c(C)cc1[N+](=O)[O-]	15
Cc1ccc(-c2csc3nc4cc(C(N)=O)ccc4c(=O)n23)cc1	5
Cc1ccc(OCC(=O)N(Cc2cccs2)C2CCS(=O)(=O)C2)cc1C (stereo not drawn)	18
CCCCn1c(SCC(=O)N2CCOCC2)nnc1-c1ccoc1C	9
CC(=O)NS(=O)(=O)c1ccc(Nc2ccc([N+](=O)[O-])c3nonc23)cc1	17

Further structures follow.
mol | Calb biofilm kill
COc1cc(/C=C/C(=O)O)cc(S(=O)(=O)N2CCc3ccccc32)c1OC | 22
Cc1cc(C)n(CCC(=O)N/N=C/c2ccc(O)cc2O)n1 | 12
S=C(NCC1CCCO1)NC1CCCCC1 (stereo not drawn) | 21
COc1ccc(C=O)cc1COc1ccc([N+](=O)[O-])c(C)c1 | 0
COCCSc1nnc(NC(=O)c2ccc3c(c2)OCO3)s1 | 20
CCCc1[nH]nc2c1C(C1CC=CCC1)C(C#N)=C(N)O2 (stereo not drawn) | 15
CCCCC(=O)Nc1cccc(NC(=S)NC(=O)COc2ccccc2Cl)c1 | 4
O=C(NCC1CCCO1)c1ccc2c(=O)n(Cc3cccc(Br)c3)c(=S)[nH]c2c1 (stereo not drawn) | 8
CCOc1ccc(NC(=O)CSc2nc(C)cc(C)n2)cc1 | 7
CCc1ccc(C(=O)NNC(=S)Nc2ccc(S(N)(=O)=O)cc2)s1 | 12

5 entries drawn at random from those above:
mol | Calb biofilm kill
C=CCc1cc(OC)ccc1OCC(O)CN1CCN(c2ccc(OC)cc2)CC1 (stereo not drawn) | 9
Cc1nc(NC(=O)C(C)Oc2cccc(Cl)c2)sc1C(=O)N(C)C (stereo not drawn) | 13
CC1=C(c2ccc(F)cc2)[N+](=O)C(C)(C)N1[O-] | 15
CN1CCc2nc3ccc(Cl)cc3c(-c3ccccc3Cl)c2C1 | 16
CCS(=O)(=O)Nc1cccc(C2=NN(S(=O)(=O)c3ccc(F)cc3)C(c3cccs3)C2)c1 (stereo not drawn) | 8

3 entries from above in another layout:
> O=C(NCC1CCCO1)c1ccc2c(=O)n(Cc3cccc(Br)c3)c(=S)[nH]c2c1 (stereo not drawn)
  Calb biofilm kill = 8

> CCOc1ccc(NC(=O)CSc2nc(C)cc(C)n2)cc1
  Calb biofilm kill = 7

> CCc1ccc(C(=O)NNC(=S)Nc2ccc(S(N)(=O)=O)cc2)s1
  Calb biofilm kill = 12

(further entries)
mol | Calb biofilm kill
Cc1noc(C)c1COC(=O)COc1ccc(-c2ccccc2)cc1 | 12
CC(c1ccccc1F)n1cc(C(=O)NCCCn2ccnc2)nn1 (stereo not drawn) | 20
COCCNC(=S)N/N=C(\C)CCc1ccc2c(c1)OCO2 | 6
COCCNC(=O)C(c1ccc(C)o1)N(Cc1ccco1)C(=O)c1snc(C(N)=O)c1N (stereo not drawn) | 13
COC(=O)c1ccc(NC(=O)CCN2C(=O)CSC2=O)cc1 | 9
CCn1nnnc1SCC(=O)c1cc(Cl)ccc1OC | 24
CCOC(=O)Cc1csc(NS(=O)(=O)c2ccc3ccccc3c2)n1 | 5
CCNc1nc(N)c(C(=O)C23CC4CC(CC(C4)C2)C3)s1 | 18
Fc1ccc(-c2nnc3ccccn23)cc1 | 13
OCC1(Cc2cccc(Cl)c2)CCCN(Cc2cn[nH]c2C2CCCCC2)C1 (stereo not drawn) | 20
COc1ccc(OC)c(/C=C/C(=O)Nc2cccc(S(=O)(=O)N3CCCC3)c2)c1 | 11
N/C(=N/S(=O)(=O)c1ccccc1)c1cccc([N+](=O)[O-])c1 | 21
O=C1CSC(c2ccccn2)N1c1ccccc1F (stereo not drawn) | 17
Cc1ccnc(NS(=O)(=O)c2cc(C(F)(F)F)ccc2Cl)c1 | 8
O=C(Nc1ncc(Cc2cccc([N+](=O)[O-])c2)s1)c1ccco1 | 3
CCn1cc(C(=O)NCCCN2CCN(C)CC2)c(=O)c2cc(S(=O)(=O)N3CCc4ccccc4C3)ccc21 | 21
N#Cc1c(NC(=S)NC(=O)c2ccccc2)sc2c1CCC2 | 8
COC(=O)c1[nH]c2ccccc2c1NC(=O)c1c(F)cccc1F | 22
Oc1ccc(NC(=S)Nc2ccc(O)cc2)cc1 | 22
CCn1c(SCc2nc3sc(C(=O)O)c(C)c3c(=O)[nH]2)nnc1-c1ccc(Cl)cc1 | 3
O=C(C[n+]1ccc(-c2cc(C(=O)Nc3cccc(C(F)(F)F)c3)c3ccccc3n2)cc1)c1cccc([N+](=O)[O-])c1 | 12
Cc1cccc(NC(=S)N/N=C2/CCCCc3ccccc32)c1 | 11
CCC(CC)C(=O)Nc1cc([N+](=O)[O-])ccc1F | 14
COc1ccc(NS(=O)(=O)c2cccc(Cl)c2Cl)cc1S(=O)(=O)N1CCCCC1 | 6
CCOC(=O)C1CCCN(C(=O)c2ccc([N+](=O)[O-])c(C)c2)C1 (stereo not drawn) | 9
Cc1ccccc1OCCN1C(=O)C(=O)c2cccc(C)c21 | 1
O=C(CSCc1ccc([N+](=O)[O-])cc1)Nc1ccccc1C(=O)O | 23
CC(C)c1ccc(/C=N/NC(=O)c2nnn(-c3nonc3N)c2CSC2=NCCS2)cc1 | 8
CN=C(NC(=O)Nc1c(C)cccc1C)NC(=O)Nc1c(C)cccc1C | -1
CN(Cc1ccccc1)c1nc(CN2CCOCC2)nc2scc(-c3ccccc3)c12 | 9
Cc1c2ccccc2nc2c(F)c(NC(C)C)c(F)c(F)c12 | 7
CSCC(=O)Nc1nc(-c2ccc3c(c2)OCCO3)cs1 | 18
Clc1ccc(-n2nnc(-c3nccs3)n2)cc1Cl | 24
O=C(CSc1ncnc2sc3c(c12)CCCC3)c1ccccc1 | 7
COc1ccccc1C(=O)NC(=S)N1CCc2ccccc21 | 15
CCOC(=O)C1(Cc2cccc(OC)c2)CCN(Cc2cnc(SC)nc2)CC1 | 2
NC(=O)COC(=O)c1c2c(nc3ccccc13)CCC2 | 2
Cc1ccc(-n2nc(C)c(C3(O)C(=O)N(C(C)C)c4ccccc43)c2N)cc1 (stereo not drawn) | 4
CN1CCN(C(=O)C2=C[C@@H](C(C)(C)C)C[C@@H](OCc3ccc(CO)cc3)O2)CC1 | 7
N/C(Cc1ccc(Cl)cc1Cl)=N\OC(=O)Cc1ccccc1 | 17

Grouped by structure: the entries above containing a tert-butyl group
mol | Calb biofilm kill
Cc1ccc(N(C(=O)CCC(=O)Nc2nccs2)C(C(=O)NC(C)(C)C)c2ccc(O)cc2)cc1 (stereo not drawn) | 9
CN1CCN(C(=O)C2=C[C@@H](C(C)(C)C)C[C@@H](OCc3ccc(CO)cc3)O2)CC1 | 7

Next section.
mol | Calb biofilm kill
CN(C)c1ccc(C(=O)OCC(=O)NC2CCCCCC2)cc1 | 13
O=C(COC(=O)c1ccco1)NCc1ccccc1Cl | 9
O=C1CC(N2CCCCCC2)C(=O)N1c1ccc(F)cc1 (stereo not drawn) | 14
O=C(N/N=C/c1cn(-c2cccs2)nc1-c1ccccc1)c1ccccc1Br | 23
CC(=O)c1c(C)[nH]c(C(=O)OCC(=O)Nc2sc3c(c2C#N)CCCC3)c1C | 14
N/C(=N\OC(=O)c1ccc2c(c1)OCO2)c1cccnc1 | 24
O=S(=O)(NCC(c1cccnc1)N1CCOCC1)c1ccc(Cl)cc1 (stereo not drawn) | 17
CN(CCOC(=O)CN1C(=O)c2ccccc2C1=O)C1=NS(=O)(=O)c2ccccc21 | 5
Cc1[nH]c2ccccc2c1/C=N/Nc1cccc(C(=O)O)c1 | 11
COc1ccc2cc(-c3[nH]ncc3CN3CCCN(c4ccccc4)CC3)ccc2c1 | 9
C[n+]1c2n(c3ccccc31)N=C(c1cc(C(C)(C)C)c(O)c(C(C)(C)C)c1)CS2 | 9
N#Cc1cc([N+](=O)[O-])ccc1NCCN1CCOCC1 | 7
COc1cccc(C(C2=C(O)CC(C)(C)CC2=O)C2C(=O)CC(C)(C)CC2=O)c1 (stereo not drawn) | -1
O=C(COC(=O)c1ccc(S(=O)(=O)Nc2ccccc2)cc1)NC1CCCC1 | -9
CCCn1c(C(C)C)n[nH]c1=S | 21
O=c1c2ccccc2cnn1CCOc1ccccc1 | -8
N#C/C(=C\c1ccc(-c2ccccc2[N+](=O)[O-])o1)C(=O)Nc1nc(-c2cccs2)cs1 | 17
COc1ccc(NC(=S)N2CCN(c3ccccn3)CC2)cc1 | 15
CS(=O)(=O)N(CC(=O)Nc1ccc(S(=O)(=O)N2CCOCC2)cc1)c1ccccc1Cl | 24
O=c1c2ccccc2cnn1Cc1n[nH]c(=S)n1-c1ccccc1 | 18
COc1ccc(CN(C(=O)c2nsc(Cl)c2Cl)C(C(=O)NC2CCCC2)c2ccc(OC)cc2)cc1 (stereo not drawn) | -15
CC(C)(C)NC(=O)C(=O)NNC(=O)COc1ccccc1 | 8
CC(C)(C)c1cc(N)n(-c2ccc(C(=O)O)cc2)n1 | 10
